# 26S disassembly: inhibitors of ATP-driven 26S proteasome dissociation, primary screen, biochemical, bead-based flow cytometry, GFP-tagged proteasome; inhibition of disassembly, % (concentration not given with the values); anti-FLAG beads, GFP-proteasome disassembly; AID 751, 2007; 0.2% of 24,000 active;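 active = above 40%; inconclusive = likely self-fluorescent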;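 note: plate controls were ATP control with full disassembly for no effect and ATP-gamma-S intact proteasomes for full effect; higher percent means more bead fluorescence retained so stronger block of disassembly; stock transfer was 100 nL into about 10 µL; wells with too few beads may also be inconclusive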
# VCAM-1 up: enhancers of VCAM-1 display on endothelial cells, cell-based, plate reader, pooled HUVEC, TNFa stimulus (AID 455); HUVEC TNFa-induced VCAM-1 immunofluorescence, plate reader; numbers were filed only for top-ranked candidate wells; 0.2% of 10,000 active; augmentation, % at 5 µM;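 active = a compound raising TNF-alpha-driven VCAM-1 surface staining, with its hit status upheld on visual or statistical review; inactive = the rest, including hits rejected on review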;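 note: 0% = TNFa with vehicle and 100% = strongest image-checked hit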
# * = called active by the depositor; i = inactive; ? = inconclusive; / = no result given. The list is partial (hit frequency here may not be typical).
SMILES,26S disassembly,VCAM-1 up
Cc1ccc(CN2C(=O)CCC2C(=O)NCCN2CCN(c3cccc(Cl)c3)CC2)cc1 (configuration not stated),2.9,/
CCN1CCN(C(=O)c2ccc3c(c2)N(Cc2ccc(F)cc2)C(=O)c2ccccc2S3=O)CC1 (configuration not stated),-0.2,/
CCCSc1nnc2nc3c(nn12)c1ccccc1n3C,0.8,i
CSC1=NCCN1C(=O)c1ccco1,-1.2,/
CCN1CCCC1CNC(=O)c1cn(C)c2ccc(S(=O)(=O)N3CCCCCC3)cc2c1=O (configuration not stated),-1.3,/
COc1ccc(C2N(c3cc(C)on3)C(=O)C3CCCN32)cc1OC (configuration not stated),-0.9,/
CCOC(=O)C(NC(=O)c1ccccc1)(Nc1cc(C)on1)C(F)(F)F (configuration not stated),-0.2,i
O=C(c1ccc(CS(=O)(=O)Cc2ccc(Cl)cc2)o1)N1CCCC1,-1.8,/
NC(=O)COC(=O)CNC(=O)c1ccc(Cl)cc1,-2.2,i
COc1cc(C(Nc2ccc3c(c2)OCO3)C(=O)NC2CCCCC2)cc(OC)c1OC (configuration not stated),1.1,i
COC(=O)C1C(=O)NC(SC)=C(C#N)C1c1ccccc1F (configuration not stated),-1.3,/
COc1ccc(N2C(=O)C3CCCN3C2c2ccc(C)o2)cc1Cl (configuration not stated),17,/
COC(=O)C1=C(C)Nc2ncnn2C1c1ccc(OC(=O)c2ccccc2)cc1 (configuration not stated),-0.8,/
Cc1nc2ncnn2c(C)c1CCC(=O)N1CCOCC1,0.1,/
CCOc1ccc(OCc2cccc(C(=O)O)c2)cc1,0.7,i
O=c1c(-c2ccccc2)c(O)c2cccc3c2n1CCC3,3.3,/
Cc1ccc(-n2nc3cc(Cl)c(NC(=O)c4ccco4)cc3n2)cc1,2.4,i
NS(=O)(=O)c1cc2c(cc1Cl)NC(C(Cl)Cl)NS2(=O)=O (configuration not stated),-1.0,i
Cc1cc(C(=O)Nc2ccccc2C#N)n(-c2ccccc2)n1,0.2,i
COc1ccc(C(=O)NCc2nnc(SCC(=O)N3CCC(C)CC3)o2)cc1OC,-1.2,/
CCN1CCCC1CNC(=O)c1cn(CC)c2ccc(S(=O)(=O)N3CCCCCC3)cc2c1=O (configuration not stated),0.2,/
Cn1c(=O)cc(OCCCC(=O)N2CCN(c3ccccn3)CC2)c2ccccc21,-0.9,/
CCOC(=O)N1CCN(C(=O)c2cccn3c(=O)c4sccc4nc23)CC1,-0.2,i
O=C(C1CCCN(S(=O)(=O)c2cnc[nH]2)C1)N1CCN(Cc2ccccc2)CC1 (configuration not stated),-0.9,/
CCNC(=O)CC1C(=O)N(c2ccc(F)cc2)C(=O)N1CCC(C)C (configuration not stated),-0.2,i
CC(C)CNC(=O)C1C2C=CC(C2)C1C(=O)O (configuration not stated),0.7,i
COc1ccc(N2C(=O)C3CCCN3C2c2ccccc2OC)cc1 (configuration not stated),0.9,/
Cc1cc(NCCCn2ccnc2)n2c(nc3ccccc32)c1C#N,2.5,i
COc1cccc(C2C3=C(N=C4SCC(=O)N42)c2ccccc2CC3)c1OC (configuration not stated),1.8,i
CC(=O)NC1(c2nnnn2CCOC(=O)Nc2ccc(Cl)cc2)CCCCC1,-2.8,i
COc1ccc2ccccc2c1CN1CCN(C)CC1,-0.9,i
O=C(Cn1cnc2sc(-c3ccccc3)cc2c1=O)N1CCOCC1,-0.4,i
CSCCC(NC(=O)c1occc1C)C(=O)O (configuration not stated),-1.1,i
COCCNC(=O)C(c1ccc(C)o1)N(C(=O)c1snc(C(N)=O)c1N)c1ccc(C)cc1 (configuration not stated),4.4,i
Cc1ccc2[nH]c(=O)c3cc(C(=O)N4CCN(C(=O)c5ccco5)CC4)sc3c2c1,0.5,/
S=c1nc2ccccc2c2nc(-c3ccccc3)[nH]n12,-4.8,/
C=CCOc1ccc(/C=N/n2cncn2)cc1OC,-0.2,i
O=C(c1ccc2ccccc2n1)N1CCN(c2ccccc2)CC1,0.9,i
O=C1CCCC2=C1C(c1ccc(Br)cc1)c1c([nH]c(=S)[nH]c1=O)N2 (configuration not stated),-0.1,i
Cc1ccc2nc3ccc(N4CCN(C)CC4)nn3c(=O)c2c1,0.3,/
CSC1=NCCN1C(=O)c1ccc2c(c1)OCO2,0.1,/
CC1(c2ccc(OC(F)F)cc2)NC(=O)N(CC(=O)Nc2ccc3c(c2)OCO3)C1=O (configuration not stated),1.4,i
COc1ccc(C(=O)Nc2nncs2)c(OC)c1,1.2,i
O=C1CN(S(=O)(=O)c2ccc(F)cc2)CC(=O)N1CCc1ccccc1,-0.3,/
Cc1ccc(S(=O)(=O)NC2=NCN(C3CCCCC3)CN2)cc1,-0.1,/
Cc1cc(N2C(=O)C(=O)/C(=C(/O)c3ccc(F)cc3)C2c2ccc(F)cc2)no1 (configuration not stated),4.2,i
O=C(O)c1ccc(-n2nnnc2Oc2ccccc2C(=O)N2CCOCC2)cc1,1.8,i
O=C(CCN1CCN(c2ccccc2F)CC1)Nc1ccccc1F,-2.0,/
COCCOC(=O)/C=C1/NC(=O)CS1,0.0,i
CCOc1ccc(S(=O)(=O)N2CCN(C(=O)c3cccn3C)CC2)cc1,1.5,i
O=C(Nc1ccccc1Cl)c1cc(S(=O)(=O)N2CCCC(C(=O)O)C2)ccc1F (configuration not stated),1.0,/
CCCCc1n[nH]c2c1C(=O)CC(C)(C)C2,-0.6,i
Cc1ccc(NC(=O)CN2CC(C)SC2=NC2CCCCC2)cc1 (configuration not stated),0.9,i
O=C(NCC1COc2ccccc2O1)c1c[nH]c2ccc(S(=O)(=O)N3CCOCC3)cc2c1=O (configuration not stated),-0.4,/
COC(=O)CCCCC(=O)C1C(=O)CC(C)(C)C(C(=O)OC)C1=O (configuration not stated),-3.2,i
COc1ccccc1-c1cc(C(=O)Nc2cccnc2)no1,0.6,/
COC(=O)c1cnn2c(C)c(Cc3cccc(F)c3)c(C)nc12,0.3,/
Cc1ccc(CNC(=O)C2CCN(S(=O)(=O)c3c(C)noc3C)CC2)cc1,0.0,i
CC1(C(=O)NC2CCCC2)CCC(=O)N1Cc1ccc2c(c1)OCO2 (configuration not stated),0.0,/
O=C(Cn1c(=O)oc2ccccc21)N1CCN(c2ccc(N3CCOCC3)nn2)CC1,3.6,/

# (more compounds)
SMILES,26S disassembly,VCAM-1 up
COc1ccc(-c2cc3nc(C4CCN(C(=O)OC(C)(C)C)CC4)c(C(=O)O)cn3n2)cc1,-1.8,/
CC(C)c1ccc2c(c1)C(=O)NC(C)(C)C2,-0.1,/
CCCS(=O)(=O)N1CCC(C(=O)NCCCOC(C)C)CC1,-0.1,/
COc1ccc(-c2cc3nc(C)cc(C)n3n2)c(OC)c1,2.2,/
O=C(CCn1c(=O)oc2ccccc21)Nc1ccon1,0.2,/
CCc1nc(NCCCN2CCOCC2)c2oc3ccccc3c2n1,0.9,i
CCOC(=O)N1CCC(Nc2c(Nc3cccc(CC)c3)c(=O)c2=O)CC1,1.4,/
Cc1cc(C)cc(NC(=O)CN(C)S(=O)(=O)c2cccc3nsnc23)c1,-0.9,/
O=C(c1cnn2ccccc12)N(Cc1ccco1)C1CCCC1,0.6,/
CC(C)CCN1CC(C(=O)NCc2ccc(F)cc2)CC1=O (configuration not stated),1.3,/
CCCNC(=O)C(CC)NS(=O)(=O)c1ccc(OC)cc1 (configuration not stated),-0.5,/
Cc1cc(=O)[nH]c(S/C=C/c2ccccc2)n1,-1.1,i
O=C(O)C1CC(=O)N(C2CCCCCC2)C1 (configuration not stated),2.5,/
COc1cccc2cc(C(=O)Nc3cccnc3N3CCOCC3)c(=O)oc12,-3.0,i
COc1cc(OC)cc(C(=O)NCc2n[nH]c(=S)n2-c2ccccc2)c1,2.6,/
CCOC(=O)c1ccccc1NC(=O)Cn1c(-c2nonc2N)nc2ccccc21,6.8,/
Cc1nc2c(-c3ccccc3)c(C)nn2c(C)c1CCC(=O)O,-0.6,i
Cc1ccccc1-n1c(=O)cc(N2CCC3(CC2)OCCO3)[nH]c1=O,0.9,/
O=C(Cn1nc(-c2ccc3c(c2)OCCO3)ccc1=O)Nc1ccc(N2CCOCC2)cc1,-0.7,i
CC(C)c1ccc(NC(=O)C(c2ccccc2)N2CCN(C=O)CC2)cc1 (configuration not stated),1.6,/
COc1ccccc1N1CCN(C(CNS(=O)(=O)c2cc(F)ccc2F)c2cccnc2)CC1 (configuration not stated),-20,i
CCCCN(C)Cc1c(C)[nH]c2ccc(OCC)cc2c1=O,0.3,/
CC1CCN(CCC(=O)Nc2ccc(Br)cc2)CC1,-0.8,i
O=C(CN1C(=O)c2ccccc2S1(=O)=O)Nc1ccc(S(=O)(=O)N2CCCCCC2)cc1,-0.3,i
COc1ccccc1N1CCN(Cc2nnnn2CCc2ccccc2)CC1,0.3,i
CN1c2cccc3cccc(c23)N(C)C1(C)C,-7.6,/
Nc1nonc1-c1noc(CCCOc2ccc(Cl)cc2Cl)n1,-0.4,/
COc1ccccc1-c1nc(SCc2ccccn2)n[nH]1,0.1,i
CCCCOc1ccc(C(=O)Nc2ccc(N3CCN(C(=O)C(C)C)CC3)cc2)cc1,?,i
CCOC(=O)c1cc2c(=O)n3cccc(C)c3nc2n(CCc2ccccc2)c1=N,-0.2,i
Cc1cccc(OCC(=O)N2CCC(c3ccccc3)C2)c1 (configuration not stated),-0.2,i
CC(=O)NCCn1c(SCC(=O)NCC2CCCO2)nc2ccccc2c1=O (configuration not stated),-2.7,i
O=C(O)c1c[nH]ccc1=O,-5.1,/
CCOC(=O)C1=C(C)NC(=O)NC1c1ccc(OCC(=O)Nc2ccccc2)c(OC)c1 (configuration not stated),-0.2,/
COc1ccc2c(c1)c1c(n2C(C)=O)C(OC(C)=O)=NCC1,-2.2,i
CCOc1ccc(S(=O)(=O)NCC2CCCO2)c2cccnc12 (configuration not stated),-1.4,i
CCOC(=O)CSc1nc2c(sc3ccccc32)c(=O)n1CCCN1CCOCC1,1.6,/
CCCCCC(=O)N(CN1C(=O)CCC1=O)c1ccccc1,0.3,i
Cc1cc(=O)n(C)c(=O)n1CCCCCN1CCCC1,0.1,i
O=C(O)CC(NS(=O)(=O)c1cccc2nsnc12)c1ccc(F)cc1 (configuration not stated),-0.5,/
COc1ccc(N(CC(=O)N2CCCC(C)C2)S(=O)(=O)c2c(C)nn(C)c2C)cc1 (configuration not stated),-0.8,/
CCOc1cc(C#N)c(NC(=O)CSc2nnnn2-c2ccc(OC)cc2)cc1OCC,-1.0,/
Cn1c(CNC(=O)C(C)(C)C)nc2ccccc21,0.4,/
CCOC(=O)N1CCC(NC(=O)C2=C(C)C(=O)OC23CCC(C)CC3)CC1 (configuration not stated),-0.2,/
Cc1nc(C)c(C(=O)Nc2cccc(C)c2C)o1,-0.3,/
Clc1ccc(OCc2nc(-c3ccccn3)no2)c(Br)c1,1.2,i
CCOc1ccc(NC(=O)CSc2nnc(Cn3c(=O)sc4ccccc43)n2C)cc1,-0.3,/
O=C(c1ccc(Cn2c(=O)[nH]c3ccccc3c2=O)cc1)N1CCN(c2ccc(F)cc2)CC1,0.1,/
COC(=O)Nc1nc2c(C)cccc2s1,-1.6,i
Cc1nn(-c2ccccc2)c2sc(C(=O)N3CCOCC3)cc12,-1.6,i
Cn1c(-c2ccc(F)cc2)cnc1SCC(=O)Nc1ccccc1N1CCOCC1,-0.4,i
CCn1nnnc1NCc1cccn1C,1.2,i
O=C(NCC1CCCO1)c1ccc(CS(=O)(=O)Cc2ccc(F)cc2)o1 (configuration not stated),-0.9,/
C=CCn1c(SCC(=O)Nc2nnc(CC)s2)nnc1-c1ccco1,1.6,/
Fc1cccc(Nc2cc(-n3cccn3)ncn2)c1,-1.1,i
CC(=O)NC(Cc1ccccc1)C(=O)NC1CCN(C(=O)c2cnccn2)CC1 (configuration not stated),-0.4,i
CC(C)c1ccc(NC(=O)C2CCCN(S(=O)(=O)c3cnc[nH]3)C2)cc1 (configuration not stated),1.8,/

# Exported with tabs: 18 of the compounds above.
Structure	26S disassembly	VCAM-1 up
O=C(O)CC(NS(=O)(=O)c1cccc2nsnc12)c1ccc(F)cc1 (configuration not stated)	-0.5	/
COc1ccc(N(CC(=O)N2CCCC(C)C2)S(=O)(=O)c2c(C)nn(C)c2C)cc1 (configuration not stated)	-0.8	/
CCOc1cc(C#N)c(NC(=O)CSc2nnnn2-c2ccc(OC)cc2)cc1OCC	-1.0	/
Cn1c(CNC(=O)C(C)(C)C)nc2ccccc21	0.4	/
CCOC(=O)N1CCC(NC(=O)C2=C(C)C(=O)OC23CCC(C)CC3)CC1 (configuration not stated)	-0.2	/
Cc1nc(C)c(C(=O)Nc2cccc(C)c2C)o1	-0.3	/
Clc1ccc(OCc2nc(-c3ccccn3)no2)c(Br)c1	1.2	i
CCOc1ccc(NC(=O)CSc2nnc(Cn3c(=O)sc4ccccc43)n2C)cc1	-0.3	/
O=C(c1ccc(Cn2c(=O)[nH]c3ccccc3c2=O)cc1)N1CCN(c2ccc(F)cc2)CC1	0.1	/
COC(=O)Nc1nc2c(C)cccc2s1	-1.6	i
Cc1nn(-c2ccccc2)c2sc(C(=O)N3CCOCC3)cc12	-1.6	i
Cn1c(-c2ccc(F)cc2)cnc1SCC(=O)Nc1ccccc1N1CCOCC1	-0.4	i
CCn1nnnc1NCc1cccn1C	1.2	i
O=C(NCC1CCCO1)c1ccc(CS(=O)(=O)Cc2ccc(F)cc2)o1 (configuration not stated)	-0.9	/
C=CCn1c(SCC(=O)Nc2nnc(CC)s2)nnc1-c1ccco1	1.6	/
Fc1cccc(Nc2cc(-n3cccn3)ncn2)c1	-1.1	i
CC(=O)NC(Cc1ccccc1)C(=O)NC1CCN(C(=O)c2cnccn2)CC1 (configuration not stated)	-0.4	i
CC(C)c1ccc(NC(=O)C2CCCN(S(=O)(=O)c3cnc[nH]3)C2)cc1 (configuration not stated)	1.8	/
